# Screening results from PubChem BioAssay.
# B2AR ag = human beta-2 adrenergic receptor agonism by FAP; Am2.2-beta2AR cells, FAP receptor internalization, flow cytometry; reference of the scale not given here; response, % (test concentration not listed); 340,000 tested, 0.43% active; AID 504454; P07550;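 active means response above a set limit, near 3 SD of response in nonfluorescent compounds, cut at about 42% in these data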;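 further: stock transfer was 100 nL into about 11 µL; a reference agonist was the positive control; negative values mostly stem from fluorescent compounds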
# Beta cell apopt = blocks beta cell apoptosis; AID 435005; protection from apoptosis, % (concentration not given with the values); 300,000 tested, 0.8% active; INS-1E cytokine-induced death, ATP luminescence, 48 h; percent of positive-control rescue, neutral wells zero;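 active means all replicates at 75% or more, or half of them and the mean; inconclusive means half reach 75% but not the mean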;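 further: 0% = cytokine-treated negative control wells and 100% = positive control rescue; higher means more ATP so stronger rescue from cytokine killing; wells of about 40 µL received 100 nL stock; the first replicate is given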
# LANA-H2A inh = blocks KSHV LANA binding to histone H2A/H2B | Q9QR71 | cell-free LANA-H2A/H2B peptide, fluorescence polarization | inhibition, % (no concentration beside the values) | 320,000 tested, 0.6% active | AID 2629; in the data active means inhibition mostly above about 10%, no sharp cut-off; inactive means mostly below about 6.7%;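 further: stock transfer was 7.5 nL into about 10 µL; 0% = median of vehicle wells and 100% = median of positive control wells; one replicate is shown; the record names a cut of 25% in any replicate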
# Target sequence (Q9QR71 whole entry, looked up): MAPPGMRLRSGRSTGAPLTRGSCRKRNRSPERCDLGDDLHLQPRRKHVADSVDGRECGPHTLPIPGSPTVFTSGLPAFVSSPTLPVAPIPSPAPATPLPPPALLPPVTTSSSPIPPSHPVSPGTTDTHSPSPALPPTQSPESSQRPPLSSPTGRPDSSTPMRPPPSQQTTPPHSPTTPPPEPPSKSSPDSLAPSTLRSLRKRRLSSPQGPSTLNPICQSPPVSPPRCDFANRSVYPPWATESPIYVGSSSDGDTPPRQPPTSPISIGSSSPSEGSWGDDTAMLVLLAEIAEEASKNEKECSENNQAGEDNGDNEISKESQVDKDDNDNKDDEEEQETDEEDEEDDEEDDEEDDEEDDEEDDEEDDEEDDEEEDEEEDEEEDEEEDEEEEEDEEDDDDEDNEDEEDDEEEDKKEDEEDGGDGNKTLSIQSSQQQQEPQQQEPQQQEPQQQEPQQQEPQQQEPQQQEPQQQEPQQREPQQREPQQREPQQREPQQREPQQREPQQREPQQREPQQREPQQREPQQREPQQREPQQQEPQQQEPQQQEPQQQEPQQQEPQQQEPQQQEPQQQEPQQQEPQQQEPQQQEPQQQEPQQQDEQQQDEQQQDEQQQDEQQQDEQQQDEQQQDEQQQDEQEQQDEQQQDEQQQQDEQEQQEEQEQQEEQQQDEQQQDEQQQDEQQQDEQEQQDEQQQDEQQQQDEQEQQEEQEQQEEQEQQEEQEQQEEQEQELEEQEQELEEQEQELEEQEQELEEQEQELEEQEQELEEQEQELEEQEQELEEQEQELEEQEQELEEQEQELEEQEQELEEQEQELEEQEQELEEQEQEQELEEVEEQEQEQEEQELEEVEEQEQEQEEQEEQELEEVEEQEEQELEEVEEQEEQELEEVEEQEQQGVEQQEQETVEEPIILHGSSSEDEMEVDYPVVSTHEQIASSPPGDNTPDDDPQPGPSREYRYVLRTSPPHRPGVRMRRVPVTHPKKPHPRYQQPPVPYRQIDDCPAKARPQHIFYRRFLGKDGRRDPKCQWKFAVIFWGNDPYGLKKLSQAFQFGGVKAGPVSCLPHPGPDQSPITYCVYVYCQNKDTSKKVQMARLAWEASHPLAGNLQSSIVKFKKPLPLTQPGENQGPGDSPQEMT
# ALR H2O2 inh = inhibitors of human sulfhydryl oxidase ALR | P55789 | purified ALR, DTT oxidation, H2O2 HRP-luminol luminescence | inhibition, % (test concentration not listed) | 290,000 tested, 3.8% active | AID 485317;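 active means mean and each replicate at 75% or more; inconclusive means only one of the two met; inactive means neither met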;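 further: stock transfer was 7.5 nL into about 7.5 µL; 0% = neutral wells and 100% = wells with inactivated enzyme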
# T cruzi repl = blocks replication of Trypanosoma cruzi | T. cruzi beta-gal in NIH3T3, luminescence, 90 h | inhibition, % (no concentration beside the values) | 300,000 tested, 1.4% active;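 active means mean inhibition across valid replicates above about 55%, limit read from the data; inconclusive means mean below that limit but half or more replicates reach it; inactive means mean below it, under half of replicates reach it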;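 further: signal also drops with host cell toxicity which is not excluded here; 0% = plate median of DMSO wells and 100% = zero luminescence signal; higher percent means less beta-gal luminescence so fewer parasites; stock transfer was 50 nL into about 50 µL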
# A1 inh = inhibitors of the anti-apoptotic protein A1, read as caspase activation; caspase activation, % (concentration not given with the values); 330,000 tested, 0.066% active; MEF A1-2A-BIM cells, Caspase-Glo 3/7 luminescence, 3 h; percent of clofoctol response, vehicle zero; AID 2462;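 active means over half of replicate activation scores above 10%, or exactly half above 10 with the replicate mean above 10; inconclusive means replicate mean below 10 yet half the replicates above 10; inactive means over half of replicates below 10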;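 further: wells of about 30 µL received 50 nL stock; many hits fall short of the cut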
# Calb FLC = C. albicans growth modulation with fluconazole | C. albicans CaCi-2 (fluconazole-resistant clinical isolate) + fluconazole, Alamar Blue growth, 48 h | growth inhibition, % (concentration not given with the values) | 300,000 tested, 0.57% active;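 active means most replicates above 75%; inconclusive means exactly half above 75%; inactive means most below 75%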;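 further: all wells also contain fluconazole at 8 µg/ml as a sub-toxic cotreatment; 0% = median of DMSO wells and 100% = median of geldanamycin control wells; wells of about 8 µL received 7.5 nL stock; the first replicate is given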
# rRNA inh HTS = inhibits bacterial ribosomal RNA function over humanized ribosomes; E. coli WT GFP vs humanized-ribosome RFP mutants, fluorescence, 24 h; active compounds read low; DMSO median 0, no signal -100; GFP signal change (wild-type ribosome), % (concentration not given with the values); 350,000 tested, 1.6% active; AID 720706;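 active means significant combined selectivity score with lowered wild-type GFP, culture density cut under 30%, mutant RFP and density less affected; inactive means any of these conditions unmet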; further: one replicate is shown; some compounds called inactive have numbers as strong as hits
# rRNA inh HTS OD600 = second read-out of rRNA inh HTS, no call of its own (marks repeat the call); OD600 change, %; measured here: OD600 growth;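 optical density of the mix in the first replicate; 0 = DMSO median and -100 = no signal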
# rRNA inh HTS RFP = second read-out of rRNA inh HTS, no call of its own (marks repeat the call); RFP signal change, %; measured here: RFP humanized mutant strains;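 first replicate; 0 = DMSO median and -100 = no signal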
# * marks the source's active call; other numbers are inactive results; ? = inconclusive; nt = not tested or not shown.
# Each structure is followed by: B2AR ag	Beta cell apopt	LANA-H2A inh	ALR H2O2 inh	T cruzi repl	A1 inh	Calb FLC	rRNA inh HTS	rRNA inh HTS OD600	rRNA inh HTS RFP
O=C(NCCCCc1ccccc1)C1CC(c2cc(C(F)(F)F)cc(C(F)(F)F)c2)=NO1 (configuration not stated)
  1	-1	2.3	nt	-13	0.6	0	4	5	4.2
Cc1ccc2[nH]c(C(=O)N/N=C/c3ccccc3C(=O)O)c(-c3ccccc3)c2c1
  -1	nt	-3.7	nt	-2	0.8	19	-1	-27	3.2
CCCCCCCCCS(=O)(=O)Nc1cc(C)ccn1
  3	-3	-4.6	-4	6	0.3	-22	6	5	-1.2
Cc1cc(C)c(-n2c(O)c(C=NCCN3CCOCC3)c(=O)[nH]c2=O)c(C)c1
  -1	-1	-2.0	-2	-20	0.0	-6	nt	nt	nt
CCc1ccc2nc(N=C(N)N)nc(C)c2c1
  -16	15	9.4	-13	31	-0.6	?	-16	-32	-9.2
CCc1nc(SCC(=O)Nc2ccc3c(c2)OCCO3)c2oc3ccccc3c2n1
  -4	10	-1.5	nt	16	-3.6	-3	nt	nt	nt
Cc1ccccc1NC(=O)c1c(C)nc(SCC(=O)OCc2ccccc2)c(C#N)c1-c1ccc(F)cc1
  9	0	2.7	-1	10	0.2	-9	-14	-24	-6.8
CCOC(=O)c1ccc(NC(=S)N(CCN2CCCCCC2)Cc2cccs2)cc1
  8	0	3.1	1	8	-0.7	-19	-6	-10	0.0
CCCn1c2ccc(F)cc2c2nnc(SCCN3CCOCC3)nc21
  -19	8	-0.5	2	2	1.1	-4	-6	-15	-1.3
Clc1cncc(Cl)c1NNc1c2ccccc2nc2ccccc12
  -2	-4	-427	13	-9	0.3	-9	-5	-21	-3.2
CCCCN(CC)CCNC(=O)Cn1cnc2sc(C)c(S(=O)(=O)N3CCC(C)CC3)c2c1=O
  -12	-4	7.8	-6	1	0.1	-8	nt	nt	nt
C=CCNC(=O)C1CC1(c1ccc(C)cc1)c1ccc(C)cc1 (configuration not stated)
  -6	-1	-0.7	nt	1	0.9	2	-22	-19	-1.6
O=C(Nc1ccc(-c2csnn2)cc1)C(Cl)(Cl)Cl
  -13	-8	7.5	9	13	0.0	22	3	0	-2.0
CCn1ccnc1CN(C)Cc1cn(-c2ccc(C)cc2)nc1-c1cccc(C)c1
  -11	-2	1.1	-16	66*	-0.5	-7	-50	-78	-9.7
CCCCN(C)C(=O)c1cn(-c2cccc(OC)c2)c(=O)c2ccccc12
  1	-1	2.3	-1	8	0.3	-6	5	4	2.9
COc1ccc(NCC(O)Cn2cnc3c2c(=O)n(C)c(=O)n3C)cc1 (configuration not stated)
  -5	2	0.9	98*	-12	0.0	1	14	10	-3.8
O=C(Nc1nc(-c2ccccc2)cs1)c1cccc([N+](=O)[O-])c1C(=O)O
  -5	-4	-8.2	-9	-3	0.0	5	nt	nt	nt
CCOC(=O)c1c(NC(=O)CSc2ncnc3ccccc23)sc(C)c1C
  -8	-2	2.3	-1	3	0.2	1	2	-1	1.7
COc1cc(C2c3[nH]c4ccccc4c3C[C@H]3C(=O)N(CCO)CC(=O)N23)cc(OC)c1OC (some centres not stated)
  10	-4	0.7	-6	-27	0.2	1	-3	-18	-2.1
Cc1cccc(-n2ncc3c(N4CCc5ccccc54)ncnc32)c1
  nt	nt	-7.5	nt	-9	0.8	-1	nt	nt	nt
Cc1cc(-c2c(C(=O)N3CCOCC3)c(C)nn2-c2ccccc2)no1
  3	nt	-5.9	0	-8	1.7	-3	-14	-25	-0.6
CCCS(=O)(=O)c1c(S(=O)(=O)CCC)c2cnccn2c1C(=O)c1ccc(CC)cc1
  -5	2	-1.7	-11	22	0.9	7	nt	nt	nt
COCc1ccc([C@@H]2C[C@H]3CN(Cc4ccccc4C)C(=O)[C@]34CCCN24)o1
  3	-7	1.6	-16	-6	0.0	-4	9	6	-7.2
O=C(O)CCC(=O)N1CCN(c2cccc(Cl)c2)CC1
  -11	2	-1.9	-6	2	0.4	3	nt	nt	nt
COc1ccc(OC)c(C(c2nnnn2C2CCCC2)N2CCN(c3ccccc3)CC2)c1 (configuration not stated)
  -3	4	-3.6	24	nt	0.5	0	nt	nt	nt
CCN1C(=O)CC(N2CCN(C(c3ccccc3)c3ccccc3)CC2)C1=O (configuration not stated)
  8	-3	-3.1	-3	-1	1.8	4	nt	nt	nt
O=C(Cc1cccs1)N1CCCC(c2nc3c(nnn3Cc3ccc(F)cc3)c(=O)[nH]2)C1 (configuration not stated)
  -7	7	7.5	1	21	0.8	6	nt	nt	nt
CC1CCCCC1NC(=O)CCNS(=O)(=O)c1ccc(Cl)cc1 (configuration not stated)
  -2	0	0.9	-1	-2	2.1	3	0	1	-0.6
O=C1Cc2ccccc2Sc2c(OCCN3CCCCC3)cccc21
  -14	-6	-0.4	-14	50	0.5	-28	nt	nt	nt
CC(=O)c1ccc(OCC(O)CN2CCN(c3ccccn3)CC2)cc1 (configuration not stated)
  nt	nt	1.0	-15	6	0.8	-20	11	9	3.5
Cc1ccc(S(=O)(=O)N(C)CC(=O)NCC(c2ccc(F)cc2)N2CCOCC2)cc1 (configuration not stated)
  5	-2	6.1	nt	nt	0.3	nt	2	2	-2.1
COc1ccc(CN(C(=O)CCC(=O)Nc2cc(C)on2)C(C(=O)NC(C)(C)C)c2cccc(OC)c2OC)cc1 (configuration not stated)
  12	-14	3.0	-2	14	-1.4	2	-2	7	0.1
COc1ccc(NC(=O)CSc2nnc(CNC(=O)COc3ccc(Cl)cc3)o2)c(OC)c1
  -1	2	-4.3	-5	-13	0.8	4	nt	nt	nt
O=c1ccc2cc(S(=O)(=O)Nc3ccc(F)cc3)ccc2o1
  7	-2	-1.5	-7	-19	-0.4	11	nt	nt	nt
CC(C)C[C@H](NC(=O)c1nc[nH]c1C(=O)N[C@@H](CC(C)C)C(=O)OC(C)(C)C)C(=O)OC(C)(C)C
  10	72	-1.4	1	35	-2.8	17	14	12	-1.1
CC1CCN(C(=O)Cn2c(SCC(=O)Nc3nccs3)nc3ccccc32)CC1
  -3	5	0.6	-4	-4	0.1	11	nt	nt	nt
Cc1ccc(S(=O)(=O)N(C)c2ccc(C)c([N+](=O)[O-])c2)cc1
  -3	-1	-4.4	0	-4	-0.2	-23	-23	-21	-2.8
COc1ccc(Br)cc1CN(C)C(=O)Cc1ccc(OC)c(S(=O)(=O)N2CCOCC2)c1
  0	-2	7.2	0	nt	-0.5	nt	nt	nt	nt
c1ccc2c(-c3nc(-c4ccncc4)no3)cccc2c1
  -4	-2	3.9	-4	40	1.3	-8	nt	nt	nt
CC(C)CCn1c(C(C)O)nc2ccccc21 (configuration not stated)
  -6	5	5.5	nt	nt	-0.9	nt	nt	nt	nt
COC(=O)c1cnc(N2CCOCC2)nc1C(F)(F)F
  0	0	-0.8	-6	-16	0.5	4	7	3	-1.4
CC(=O)N=c1sccn1CC(O)c1ccccc1 (configuration not stated)
  -1	-5	-4.7	-64	-1	0.3	nt	12	11	1.0
CC(/C=N/NC(=O)CSc1nc(C)cc(C)n1)=C\c1ccccc1
  5	-12	1.8	-1	-16	0.4	-4	nt	nt	nt
CCN(CC)CCN(C(=O)c1ccc2c(c1)CCCC2)c1nc2ccc(OC)cc2s1
  17	-1	1.2	-14	28	1.0	0	-44	-60	-9.6
CCN(CC)C(=O)c1c([N+](=O)[O-])c(C(C)(C)C)nn1C
  5	-11	3.9	3	-3	0.0	-17	9	7	-5.0
CCOc1ccccc1NC(=O)Nc1ccon1
  4	-4	0.0	3	-2	-0.4	-1	3	-5	0.2
COc1ccc(-c2cc3c(=O)n(CC(=O)NCc4ccccc4F)ncn3n2)cc1
  -7	12	-3.3	-1	-7	-0.3	1	-3	1	-5.9
COc1cc(OC)cc(C(=O)NNC(=O)c2ccccn2)c1
  5	71	0.1	-6	-3	1.1	8	-33	-50	-8.9
COCCNC(=S)N/N=C/c1ccc(OCc2ccc(C(=O)OC)cc2)cc1
  9	3	4.4	0	-9	0.7	-2	7	9	2.8
O=C(NCC1CCCN(C(=O)c2cscn2)C1)c1ccc(-c2ccccc2)cc1 (configuration not stated)
  1	-1	0.2	-2	5	0.7	-4	-6	-6	-2.0
NS(=O)(=O)c1ccc(CCNC(=O)CSc2nc3ccsc3c(=O)n2CCCCCC(=O)O)cc1
  4	-12	1.2	11	2	0.9	5	7	-6	4.6
Cc1cc(C)c(C)c(S(=O)(=O)NCC(=O)NCc2ccco2)c1C
  1	-17	-3.1	-2	-17	0.8	-2	nt	nt	nt
CCC(=O)Nc1ccc(N/C(N)=N/c2nc(C)cc(C)n2)cc1
  -17	1	-0.3	nt	-15	-0.1	-2	10	12	1.9
Cc1ccc(CSc2[nH]c(=O)ncc2C)cc1
  5	-7	1.2	5	-9	0.4	-10	-19*	-7.8*	8.1*
C#CCOCCOCCOCCNc1nc(N2CCN(C(=O)CCCCCCCCCCNC(=O)[C@H](CCCCN)n3cc(C)nn3)CC2)nc(N2CCN(C(=O)CCCCCCCCCCNC(=O)[C@@H]([C@H](C)CC)n3cc(CCCCCN)nn3)CC2)n1
  -534	94*	-61	-8	nt	1.6	nt	nt	nt	nt
COc1ccccc1N1Cc2ccccc2C1
  5	0	-1.8	-30	40	2.3	-1	nt	nt	nt
Cc1ccc2[nH]c(=O)c(CN(Cc3cccnc3)Cc3nnnn3CCN3CCOCC3)cc2c1
  -6	-8	-0.7	-12	4	0.8	2	nt	nt	nt
Cc1ccc(-c2ccc(=O)n(CC(=O)N3CCN(c4cc(Cl)ccc4C)CC3)n2)cc1
  -4	-1	2.3	-1	8	-0.5	49	-3	-7	13
CC(C(=O)O)n1c2ccccc2c2cn[nH]c(=O)c21 (configuration not stated)
  2	-3	4.1	-5	-3	1.6	6	5	13	6.2
N#CC1=C(N)Oc2c(sc3ccccc23)C1c1ccco1 (configuration not stated)
  -299	6	1.2	4	-14	-0.7	-3	nt	nt	nt

# Next section.
# Each structure is followed by: B2AR ag	Beta cell apopt	LANA-H2A inh	ALR H2O2 inh	T cruzi repl	A1 inh	Calb FLC	rRNA inh HTS	rRNA inh HTS OD600	rRNA inh HTS RFP
CC1CSc2n(-c3cccc(C(F)(F)F)c3)cc(-c3ccccc3)[n+]21 (configuration not stated)
  9	-3	3.4	1	52	-0.5	-29	-3	-3	1.9
Cc1nnsc1C(=O)NNc1ccc(Cl)cc1
  -4	0	2.7	-16	14	-0.1	-21	8	5	-1.5
CCCCOC(=O)Cn1c(=O)c2c(nc(Br)n2Cc2ccccc2)n(C)c1=O
  6	4	3.2	nt	7	-1.3	3	nt	nt	nt
COC(=O)c1ccc(CSc2nc3ccccc3c(=O)n2-c2cccc(OC)c2)o1
  7	1	1.3	-7	20	-0.1	?	1	-1	0.5
O=C(COC(=O)c1ccccc1O)Nc1ccc2ccccc2c1
  -1	-5	-2.0	-12	nt	-0.4	nt	8	14	1.4
Cc1nc(N)sc1-c1csc(NCc2ccccc2)n1
  -6	-11	-1.2	-9	2	0.3	3	nt	nt	nt

# Not all compounds are listed; the hit share may differ from the screen's.
